# Screening data (PubChem)
# CtBP-E1A inh: blocks the CtBP interaction with E1A; AlphaScreen GST-E1A/His-CtBP binding, 1536-well; active compounds read low; control for the full effect not named in the record; activity change, % (concentration not given with the values); hit rate 0.49% among 340,000; in the data active means activity change below about -65%; inconclusive means about -30% to -65%; inactive means above about -30%; further: on the % scale 0 is the no-effect control and ±100 the full control effect
#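 In 5 uL wells, 23 nL compound meets equimolar GST-E1A and His-CtBP (5X stock 125 nM each) for 2 h, 37 °C. Beads (5X, 50 ug/mL) then 1 h, 37 °C, dark.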
# PINK1 expr mod: PINK1 expression modulation | PINK1 immunofluorescence, high-content cytometry, 24 h | Potency, µM (titrated, usually from 76.6 µM), inactives show at the top dose activation (PINK1 increase), actives largely listed as activators | hit rate 0.2% among 410,000 | AID 624263; active = well fitted activation curve with a large enough effect; inconclusive = small, poorly fitted or top-dose-only effect; inactive = flat fitted curve, though single readings scatter; cell line not stated here;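 further: potency means the concentration at half of the fitted maximal effect; % of control where 0% means no effect; nearly all actives have a fitted effect of over 65% in size; a mitochondrial uncoupler was the plate control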
#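 Measures PINK1 amount and localization on or inside mitochondria by immunofluorescence. Stable cells get compounds at 5 concentrations for 24 hours before fixation and staining; CCCP controls included.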
# TRPML1 agonist: activates the human TRPML1 channel; hit rate 0.12% among 410,000; AID 624414; activation, % (no concentration beside the values); TRPML1-expressing cells, Ca2+ dye fluorescence, FDSS; host cell line not named in the record; reference of the full effect not given here; in the data active = activation above about 50%; inconclusive = about 30% to 50%; inactive = below about 30%; further: 0% is about no effect; the text of the record puts the active cut at 80%
# Target sequence (Q9GZU1 whole entry, looked up): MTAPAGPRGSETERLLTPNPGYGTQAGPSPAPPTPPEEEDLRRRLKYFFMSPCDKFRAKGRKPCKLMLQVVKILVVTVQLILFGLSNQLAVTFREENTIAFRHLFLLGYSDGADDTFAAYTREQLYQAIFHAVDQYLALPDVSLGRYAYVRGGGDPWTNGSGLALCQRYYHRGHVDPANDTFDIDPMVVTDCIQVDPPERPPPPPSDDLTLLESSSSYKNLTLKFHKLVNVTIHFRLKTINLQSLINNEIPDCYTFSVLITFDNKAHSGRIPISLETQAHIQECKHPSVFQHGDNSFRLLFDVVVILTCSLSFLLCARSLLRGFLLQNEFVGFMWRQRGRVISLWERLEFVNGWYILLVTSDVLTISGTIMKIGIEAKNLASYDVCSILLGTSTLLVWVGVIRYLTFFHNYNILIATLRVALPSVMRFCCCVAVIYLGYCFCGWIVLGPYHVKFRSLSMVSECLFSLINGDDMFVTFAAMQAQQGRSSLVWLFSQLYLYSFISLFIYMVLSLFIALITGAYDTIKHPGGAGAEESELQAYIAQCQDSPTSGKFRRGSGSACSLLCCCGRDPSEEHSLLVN
#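 Kinetic FDSS Ca2+ read in Tet-induced TRPML1-DL cells (ABD Ca8 dye plus quencher, 45-90 min RT loading): baseline, then compound, then 110 s agonist window; EC80 agonist 54-4 at 4uM final added afterwards for a 110 s antagonist window.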
# TRPML1 blocker: inhibitors of human TRPML1 channel; Q9GZU1; TRPML1-inducible cells, Ca2+ dye fluorescence, FDSS; active compounds read low; inhibition of EC80 agonist-evoked calcium signal; activity change, negative = inhibition, % (test concentration not listed); hit rate 0.02% among 390,000; AID 624415; in the data active means activity change below about -50%; inconclusive means about -30% to -50%; inactive means above about -30%;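 further: stimulus is agonist 54-4 at its EC80 concentration; on the % scale 0 is the no-effect control and ±100 the full control effect; compound concentration not given in the record; the text of the record puts the active cut at -80%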
#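 Calcium fluorescence in TRPML1-DL cells induced overnight with Tet: a 110 s read after compound pin addition, then a 110 s antagonist read after challenge with 54-4 at 4 uM final (EC80).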
# Six1-Eya2 blk: Six1/Eya2 interaction inhibition; hit rate 0.56% among 360,000; activity change, % (concentration not given with the values); AlphaScreen GST-Six1/His-Eya2 binding, biochemical; active compounds read low; control for the full effect not named in the record; in the data active = activity change below about -65%; inconclusive = about -30% to -65%; inactive = above about -30%; further: on the % scale 0 is the no-effect control and ±100 the full control effect
#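 GST-Six1 + His-Eya2 (5X stock: 250/500 nM); Tris pH 8.0, 300 mM NaCl, 0.05% BSA, 0.02% Tween 20; GSH donor/Ni acceptor beads; 1 h 37 °C dark; AlphaScreen readout.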
# D2 agonist: human D2 receptor agonism in beta-arrestin assay; P14416; DiscoveRx PathHunter D2 beta-arrestin, luminescence, 90 min; 100% = 57 uM dopamine signal; activation, % (concentration not given with the values); hit rate 0.084% among 360,000; in the data active = activation above about 40%; inconclusive = about 15% to 40%; inactive = below about 15%; further: compound concentration not given in the record; the text of the record calls up to 30% inactive
# Target sequence (P14416 whole entry, looked up): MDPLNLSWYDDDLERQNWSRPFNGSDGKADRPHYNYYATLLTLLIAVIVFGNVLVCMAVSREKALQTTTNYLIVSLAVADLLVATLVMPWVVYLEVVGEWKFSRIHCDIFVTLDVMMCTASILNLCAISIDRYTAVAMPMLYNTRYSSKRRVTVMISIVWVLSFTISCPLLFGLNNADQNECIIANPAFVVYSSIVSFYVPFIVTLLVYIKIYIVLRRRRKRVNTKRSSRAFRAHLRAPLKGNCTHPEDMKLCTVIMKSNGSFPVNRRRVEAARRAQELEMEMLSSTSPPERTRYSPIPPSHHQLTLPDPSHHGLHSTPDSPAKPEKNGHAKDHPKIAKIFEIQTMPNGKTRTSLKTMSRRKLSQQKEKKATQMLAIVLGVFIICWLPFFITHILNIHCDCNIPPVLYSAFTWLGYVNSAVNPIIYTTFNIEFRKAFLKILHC
#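 Agonist mode: compounds alone added to overnight-plated D2 PathHunter cells for 90 min at 37 C, with 57 uM final dopamine (EC100) defining full response. Beta-arrestin recruitment detected by chemiluminescent reagent, read after 1 h at ambient temperature.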
# * marks the source's active call; other numbers are inactive results; ? = inconclusive; . = not tested or not shown; & = joins results of further samples; [ ] = remark or other dose.
compound	CtBP-E1A inh	PINK1 expr mod	TRPML1 agonist	TRPML1 blocker	Six1-Eya2 blk	D2 agonist
COc1ccc(C(=O)Nc2ccc(OCC(F)(F)C(F)F)c(C(F)(F)F)c2)cc1OC	1	0.0%	1.2	-4	-1	0.9
CSc1nnc(C)c(/C=C/Nc2ccc(F)cc2)n1	?	3.2%	3.4	-7	?	-4.2
O=C(c1cccc(NC2=NC3CS(=O)(=O)CC3S2)c1)N1CCN(c2cccc(Cl)c2)CC1 (stereo unspecified)	1	1.7%	-0.3	2	-2	1.9
Cc1ccc2nc(-c3ccc(N4C(=N)SC5CS(=O)(=O)CC54)cc3)sc2c1 (stereo unspecified)	0	4.5%	0.9	-25	-2	-1.0
Cc1cc(C)cc(NS(=O)(=O)c2ccc3[nH]cc(C(=O)N4CCc5ccccc54)c(=O)c3c2)c1	-25	6.1%	1.0	-9	?	3.0
CCOC(=O)c1ccc2ncc(C(=O)OCC)c(NCc3ccco3)c2c1	-4	6.4%	1.1	6	-6	0.3
COc1cc(-c2nc(Cn3nnc(C(=O)Nc4cc(C)cc(C)c4)c3C)c(C)o2)cc(OC)c1OC	.	7.6%	-0.4	-11	.	.
CCc1nnc(NS(=O)(=O)c2ccc(N=Cc3c(C)[nH]n(-c4ccc(C)c(C)c4)c3=O)cc2)s1	?	1.5%	-1.5	-6	?	2.3

# Three entries already listed, sorted by their value in PINK1 expr mod, rising:
Molecule | CtBP-E1A inh | PINK1 expr mod | TRPML1 blocker | Six1-Eya2 blk | D2 agonist
COc1ccc(C(=O)Nc2ccc(OCC(F)(F)C(F)F)c(C(F)(F)F)c2)cc1OC | 1 | 0.0% | -4 | -1 | 0.9
O=C(c1cccc(NC2=NC3CS(=O)(=O)CC3S2)c1)N1CCN(c2cccc(Cl)c2)CC1 (stereo unspecified) | 1 | 1.7% | 2 | -2 | 1.9
CCOC(=O)c1ccc2ncc(C(=O)OCC)c(NCc3ccco3)c2c1 | -4 | 6.4% | 6 | -6 | 0.3

# Following part:
compound	CtBP-E1A inh	PINK1 expr mod	TRPML1 agonist	TRPML1 blocker	Six1-Eya2 blk	D2 agonist
O=c1[nH]c2cc(Cl)ccc2c(O)c1-c1cccc(Oc2ccccc2)c1	-7	0.3%	0.8	0	1	-6.6
CC(=O)c1ccc(NC(=O)CNCC(c2ccccc2)N(C)C)cc1 (stereo unspecified)	1	0.4%	-1.1	4	-1	-4.4
O=[N+]([O-])c1ccccc1OCCCN1CCc2ccccc2C1	-10	0.5%	0.2	53	-10	4.7
O=C(NN=C1C2CC3CC(C2)CC1C3)c1ccncc1	-3	1.6%	0.0	0	11	-1.0
CCOC(=O)Cc1[nH]nc2c1C(c1cc(OC)ccc1OC)C(C#N)=C(N)O2 (stereo unspecified)	6	5.7%[38.3 µM]	-0.4	-16	-2	0.1
NC(=O)c1ncn([C@@H]2O[C@H](CNCc3ccccc3OCc3ccc(Cl)cc3Cl)[C@@H](O)[C@H]2O)n1	3	-0.3%	-0.3	24	3	-2.9
CC1(C(=O)NS(=O)(=O)c2ccc(Br)cc2)CCN1C(=O)C1(c2ccccc2)CC1 (stereo unspecified)	-6	-0.3%	-0.6	.	4	7.6
COc1ccc(S(=O)(=O)Nc2ccccc2C(=O)NCc2cccnc2)cc1	-13	3.9%	-0.6	-22	8	-3.0
CCCCc1nnc(NC(=O)CCc2ccccc2)s1	-9	1.8%	-0.2	2	13	-6.0
CCc1cccc(NC(=O)c2cc(-c3ccccc3)n[nH]2)c1	.	1.9%	0.4	-12	.	.
CCOc1ccc(NC(=O)NC(C)c2c(-n3cccc3)sc3c2CCN(CC)C3)cc1 (stereo unspecified)	.	-0.5%	12	1	.	.
Cc1sc(NC(=O)Cn2nc(C(F)(F)F)cc2C)c(C(=O)OC(C)C)c1C	3	11%	0.0	5	2	-3.9
CCOc1ccc(Nc2oc(/C=C/c3cccc(OC)c3)nc2C#N)cc1	.	1.4%	2.6	23	.	.
CCCCCC[n+]1c(-c2ccccc2)csc1Nc1ccccc1	2	?	0.3	-17	-15	0.5
Cn1c(C(=O)NC2CCCCC2)cc2c(=O)n(C)c3ccccc3c21	-7	8.6%	-0.1	-9	-2	-2.2
COC(=O)c1c(-c2ccccc2)[nH]c(-c2nccc3ccccc23)c1C(=O)OC	1	0.6%	-0.7	12	-6	-2.0
COc1cccc(C(=O)Nc2ccc(N3CCN(Cc4ccccc4)CC3)cc2)c1	-7	-1.2%	-0.4	3	-17	-3.6
CC1CCc2nc(NC(=O)CN3CCN(c4ccc(F)cc4)CC3)sc2C1 (stereo unspecified)	-21	1.3%	0.1	12	?	-1.0
Cc1ccc(S(=O)(=O)CCC(=O)Nc2nnc(-c3ccccc3S(C)(=O)=O)o2)cc1	-3	-3.8%	0.7	-9	-13	4.2
CN(Cc1c(F)cccc1Cl)C(=O)c1cnc2ccccc2n1	-3	1.3%	-0.5	-1	6	0.9
COc1ccc(CCNS(=O)(=O)c2ccc(OC)c(OC)c2)cc1OC	-2	1.2%	-0.1	17	-1	1.2
CCN1CCN(c2ccc(NC(=O)c3ccc(C#N)cc3F)cc2Cl)CC1	7	0.8%	-0.6	7	1	-2.7
CC(C)CC1C(=O)N(Cc2cn(Cc3ccco3)nn2)CCS(=O)(=O)N1Cc1ccc(-c2ccccc2)cc1 (stereo unspecified)	3	3.6%	-0.6	14	-14	-3.7
CC(NC(=O)c1ccc(N)cc1)c1ccccc1 (stereo unspecified)	-1	-0.3%	-0.3	-7	3	0.8
CCc1ccc(NC(=O)N2CCOc3ccc(Cl)cc32)cc1	.	0.6%	1.6	-3	.	.
O=C(C1CCCN(S(=O)(=O)c2cccc3nonc23)C1)N1CCN(c2ccccc2Cl)CC1 (stereo unspecified)	-10	-1.0%&-2.9%	0.6&0.9	13&-1	4	2.2
Cc1ccc(-c2csc3nc(CN(C)Cc4ccccc4)[nH]c(=O)c23)cc1	0	2.7%	0.6	-1	2	-2.6
COc1ccc(NC(=O)C2CC(=O)N/C(=N/N=C/c3ccco3)S2)cc1 (stereo unspecified)	-24	2.2%	-0.2	-8	-8	-1.9
NC(=O)C1CCN(C(=O)COc2ccc3ccc(=O)oc3c2)CC1	-4	-0.2%	.	.	-1	-4.0
O=C1c2ccccc2C(=O)N1CC(O)CN1CCOCC1 (stereo unspecified)	7	-0.6%	-0.2	4	3	0.3
COc1ccc(OCC(=O)OCC(=O)Nc2ccc3[nH]c(=O)[nH]c3c2)cc1	-7	0.5%	1.8	-1	-11	7.2
Cc1ccc(NC(=O)C(=O)NCC(c2cccnc2)N2CCN(Cc3ccccc3)CC2)cc1C (stereo unspecified)	.	0.7%	0.4	-14	.	.
Cc1cc(C(=O)OCC(=O)NCc2ccccc2)c(C)o1	-1	1.3%	0.1	-8	0	3.4
Cc1ccsc1/C=C1\SC(N2CCOCC2)=NC1=O	1	-0.4%	-0.8	19	-4	-2.5
COc1ccc(CNCC(O)(c2ccccc2)c2ccccc2)cc1	14	17%	0.5	-1	5	-3.8
COc1ccc2cc(S(=O)(=O)NCCCN3CCOCC3)ccc2c1	3	0.1%	0.3	3	1	-0.6
CCn1c(CSc2nc3ccccc3s2)n[nH]c1=S	-3	2.2%[38.3 µM]	3.6	-5	-3	-0.2
COc1ccc(C(=O)NNC(=O)CSc2nnc(COc3ccc4ccccc4c3)n2C)cc1	0	-11%[38.3 µM]	0.6	17	-2	-1.9
Cc1ccc(CCNC(=O)C2CCCN(c3nnc(C)c4c(C)n(-c5ccccc5)nc34)C2)cc1 (stereo unspecified)	.	3.1%	2.1	20	.	.
COc1cccc(N2CCN(C(=O)C3CCN(S(=O)(=O)c4cccs4)CC3)CC2)c1	-4	-2.7%	2.3	0	-10	4.5
CCn1c(C)c(P(=O)(N2CCOCC2)N2CCOCC2)c2ccccc21	-12	2.3%	-0.6	-8	-1	-4.4
CSc1nc2[nH]c(=O)[nH]c2c(=O)[nH]1	-13	3.9%	0.7	14	-16	-2.9
COc1ccccc1OCCNC(=O)CN1C(=O)NC2(CCCCC2)C1=O	6	-1.6%	-0.1	-5	6	-2.7
CCOC(=O)N1CCN(C(=O)CS(=O)(=O)Cc2nc(-c3ccccc3C)oc2C)CC1	-16	2.9%	1.0	0	-8	-3.1
Cc1cc(=O)[nH]c(N/N=C/c2c(O)n(-c3ccccc3)c(=O)c3ccccc23)n1	?	0.7%	-0.1	2	-87*	-0.4
CN(C(=O)CSc1nnc(-c2ccco2)o1)C1CCCCC1	-1	0.8%	-0.6	6	-1	-2.6
O=C(NCC1CCCO1)c1nn2c(C(F)(F)F)cc(-c3cc(Br)cs3)nc2c1Br (stereo unspecified)	-18	?	-1.0	0	-24	-2.0
COCC(=O)N(C)C[C@H]1Oc2ncc(Br)cc2C(=O)N([C@@H](C)CO)C[C@H]1C	6	-1.0%	-0.2	5	3	-2.7
COc1ccc(-c2nc(CNS(=O)(=O)c3ccccc3)cs2)cc1	.	-0.8%	0.4	5	.	.
COc1ccc(N(CC(=O)NCc2ccco2)S(C)(=O)=O)cc1OC	0	3.2%[38.3 µM]	-0.4	28	-1	-6.2
Cn1c(=O)c2c(SCCN3CCOCC3)nc(C3CCCC3)nc2n(C)c1=O	11	0.8%	0.3	-5	6	0.5
CCOCCCNC(=O)/C=C1\Sc2ccccc2N(Cc2ccccc2F)C1=O	0	2.0%	1.6	-1	3	-2.9
CCN1CCN(C(c2ccc(OC)cc2)C(O)C(=O)c2c[nH]c3ccccc23)CC1 (stereo unspecified)	3	-2.8%	-0.7	6	-5	-1.3
COc1ccccc1-c1ccc(=O)n(CC(=O)NCc2ccco2)n1	-7	1.6%	-0.4	4	5	-1.9
O=C(NC1CCCCC1)C(c1cccnc1)N(C(=O)CCl)c1cccc(Cl)c1 (stereo unspecified)	10	-4.1%	0.4	33	2	-1.2
Cc1ccc(NC(=O)C2CC(=O)NC(N3CCCCC3)=N2)cc1Cl (stereo unspecified)	2	-1.0%	-0.5	-8	3	-3.4

# Next section:
compound	CtBP-E1A inh	PINK1 expr mod	TRPML1 agonist	TRPML1 blocker	Six1-Eya2 blk	D2 agonist
Cc1cc(SCC(=O)N/N=C/c2ccc(O)cc2O)c(C)cc1Br	-15	-2.8%	-0.3	0	-7	2.3
COC(=O)[C@H](CCSC)NC(=O)Nc1ccc(OC)c(Cl)c1	6	0.9%	-1.5	0	7	-0.6
CCC(CO)Oc1cc(NC(=O)c2cccc(OC)c2)c2ncn(C(C)C)c2c1 (stereo unspecified)	3	1.5%	0.3	0	1	8.0
O=C(Nc1ccc(OC(F)F)c(Cl)c1)c1ccccn1	.	-0.3%	1.1	6	16	7.6
Cc1ccc(C)c(NC(=O)CN(C)C(=O)c2ccc(-n3cncn3)c([N+](=O)[O-])c2)c1	2	2.7%	-0.6	18	0	-2.5
CCOC(=O)/C=c1/s/c(=C/c2ccccc2OC)c(=O)n1CC(=O)N1CCOCC1	1	4.6%	1.1	-23	-3	-0.3
CC(C)(C)c1ccc(C(=O)NCC(=O)O)cc1	-3	-0.2%	0.0	5	3	0.2
O=C(CSc1nccn1-c1ncc(C(F)(F)F)cc1Cl)c1ccc(Br)cc1	2	0.9%	-0.7	3	12	-0.2
